Screening data as filed in PubChem BioAssay.
A1 apoptosis 2 – compounds inhibiting A1, read as caspase activation; MEF A1-2A-BIM cells, caspase-Glo luminescence, 3 h; percent of clofoctol response, DMSO zero; caspase activation, % (concentration not given with the values); 24,000 tested, under 10 active; in the data active means caspase activation above about 5.9%;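 further: wells of about 30 µL received 50 nL stock; the first replicate is given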
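system = A1-2A-BIM-expressing MEF cells | quantity = 2500 MEF cells/well | dosing = 50 nL compound per well, pinned | schedule = overnight cell settling, then 3 h compound exposure, 37 °C | signal = luminescence from DEVD-luciferin Caspase-Glo reagent, 1:1 in 50 mM HEPES, 1 h RT | read-out = Caspase-3/7 activation, seen as rise in luminescence signal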
An asterisk follows results filed as active.

SMILES	A1 apoptosis 2
C[C@@H]1CCCCO[C@H](CN(C)S(=O)(=O)c2ccc(F)cc2)[C@@H](C)CN([C@H](C)CO)C(=O)c2cc(NS(=O)(=O)c3cn(C)cn3)ccc2O1	-0.1
CC(=O)NCCCC[C@@H]1NC(=O)[C@@H]2C[C@H](C(=O)NCc3ccc(F)cc3)[C@H](c3cccc(OCCO)c3)N2C1=O	0.2
C[C@H]1CCCCO[C@H](CN(C)C(=O)Nc2cccc3ccccc23)[C@@H](C)CN([C@@H](C)CO)C(=O)c2cc(NC(=O)c3ccncc3)ccc2O1	-1.5
COc1ccc(S(=O)(=O)N(C)C[C@@H]2OCCCC[C@@H](C)Oc3ccc(NC(=O)NC4CCCCC4)cc3C(=O)N([C@@H](C)CO)C[C@@H]2C)cc1	0.6
C[C@@H]1CN([C@@H](C)CO)C(=O)c2cc(NS(=O)(=O)c3ccc(F)cc3)ccc2O[C@@H](C)CCCCO[C@@H]1CN(C)C(=O)Cc1ccccc1	-0.9
Cc1noc(C)c1NC(=O)Nc1cccc2c1O[C@@H](CN(C)C(=O)Nc1ccc(C(F)(F)F)cc1)[C@@H](C)CN([C@H](C)CO)C2=O	0.4
C[C@H](CO)N1C[C@H](C)[C@H](CN(C)Cc2ccc(C(=O)O)cc2)Oc2ccc(NC(=O)Cc3cn(C)c4ccccc34)cc2CC1=O	0.5
C[C@@H]1CN([C@H](C)CO)C(=O)c2cc(NC(=O)CCCN(C)C)ccc2O[C@@H](C)CCCCO[C@H]1CN(C)C(=O)Nc1ccccc1	-0.3
CCO[C@@H]1OC(C(N)=O)=C[C@H](c2ccc3c(c2)OCO3)[C@H]1CCCO	0.2
C[C@@H]1CN([C@H](C)CO)C(=O)Cc2cc(NC(=O)CCCCCC(=O)Nc3ccccc3N)ccc2O[C@@H]1CN(C)Cc1ccc(C(F)(F)F)cc1	0.4
C[C@@H]1CCCCO[C@H](CN(C)C(=O)c2ccccc2)[C@@H](C)CN([C@@H](C)CO)C(=O)c2cc(NC(=O)Nc3ccc(F)cc3)ccc2O1	-0.9
C[C@@H]1CN([C@H](C)CO)C(=O)Cc2cc(NC(=O)Nc3ccc4c(c3)OCO4)ccc2O[C@@H]1CN(C)C(=O)Nc1ccccc1	0.9
C[C@@H]1CN([C@H](C)CO)C(=O)Cc2cc(NC(=O)Nc3ccc4c(c3)OCO4)ccc2O[C@H]1CN(C)C(=O)Nc1ccc(F)cc1	-0.2
C[C@@H]1CN([C@H](C)CO)C(=O)c2cc(NS(=O)(=O)c3ccccc3)ccc2O[C@H]1CN(C)Cc1ccc(C(=O)O)cc1	0.1
C[C@@H]1CN([C@@H](C)CO)C(=O)Cc2cc(NC(=O)Nc3cccc4ccccc34)ccc2O[C@@H]1CN(C)S(=O)(=O)c1ccccc1	-0.7

6 of the compounds above, comma-delimited:
SMILES,A1 apoptosis 2
C[C@@H]1CCCCO[C@H](CN(C)S(=O)(=O)c2ccc(F)cc2)[C@@H](C)CN([C@H](C)CO)C(=O)c2cc(NS(=O)(=O)c3cn(C)cn3)ccc2O1,-0.1
C[C@@H]1CN([C@H](C)CO)C(=O)c2cc(NC(=O)CCCN(C)C)ccc2O[C@@H](C)CCCCO[C@H]1CN(C)C(=O)Nc1ccccc1,-0.3
C[C@@H]1CN([C@H](C)CO)C(=O)c2cc(NS(=O)(=O)c3ccccc3)ccc2O[C@H]1CN(C)Cc1ccc(C(=O)O)cc1,0.1
C[C@@H]1CN([C@H](C)CO)C(=O)Cc2cc(NC(=O)Nc3ccc4c(c3)OCO4)ccc2O[C@@H]1CN(C)C(=O)Nc1ccccc1,0.9
C[C@@H]1CN([C@@H](C)CO)C(=O)Cc2cc(NC(=O)Nc3cccc4ccccc34)ccc2O[C@@H]1CN(C)S(=O)(=O)c1ccccc1,-0.7
CC(=O)NCCCC[C@@H]1NC(=O)[C@@H]2C[C@H](C(=O)NCc3ccc(F)cc3)[C@H](c3cccc(OCCO)c3)N2C1=O,0.2

Later entries
SMILES	A1 apoptosis 2
C[C@@H]1CN([C@H](C)CO)C(=O)Cc2cc(NC(=O)Nc3ccc(F)cc3)ccc2O[C@@H]1CN(C)S(=O)(=O)c1cccs1	0.0
C[C@@H]1CN([C@@H](C)CO)C(=O)c2cc(NS(=O)(=O)c3cn(C)cn3)ccc2O[C@@H](C)CCCCO[C@@H]1CN(C)C	-0.8
C[C@H]1CN([C@@H](C)CO)C(=O)Cc2cc(NC(=O)Cc3ccccc3)ccc2O[C@@H]1CN(C)Cc1ccc(C(=O)Nc2ccccc2N)cc1	1.2
COc1ccc(NC(=O)N(C)C[C@@H]2OCCCC[C@H](C)Oc3ccc(NC(=O)c4ccccc4)cc3C(=O)N([C@H](C)CO)C[C@@H]2C)cc1	-1.5
COc1ccc(NC(=O)N(C)C[C@H]2Oc3c(NC(=O)NC4CCCCC4)cccc3C(=O)N([C@H](C)CO)C[C@H]2C)cc1	0.2
C[C@H]1CN([C@@H](C)CO)C(=O)c2cc(NC(=O)CCCCCC(=O)Nc3ccccc3N)ccc2O[C@H]1CN(C)C	0.1
COc1ccc(NC(=O)Nc2ccc3c(c2)C(=O)N([C@H](C)CO)C[C@@H](C)[C@@H](CN(C)C(=O)CCC(F)(F)F)OCCCC[C@H](C)O3)cc1	-0.2
O=C1O[C@H](c2ccccc2)[C@H](c2ccccc2)N2[C@H]1[C@@H](C(=O)N1CCCCCCC1)[C@]1(C(=O)Nc3ccccc31)[C@H]2c1ccc(OCCO)cc1	0.2
C[C@H](CO)N1C[C@H](C)[C@@H](CN(C)Cc2ccc(C(F)(F)F)cc2)Oc2ccc(NC(=O)Nc3ccc(F)cc3)cc2C1=O	-0.5
O=C(NO)c1cccc(C(=O)N/N=C/c2ccncc2Br)c1	-4.9
C[C@H]1CN([C@@H](C)CO)C(=O)c2cccc(NS(C)(=O)=O)c2O[C@@H]1CN(C)CC1CCCCC1	-1.4
C[C@@H]1CN([C@@H](C)CO)C(=O)c2cccc(NC(=O)Nc3ccc(C(F)(F)F)cc3)c2O[C@H]1CN(C)C(=O)Nc1ccccc1	0.8
COc1ccc(S(=O)(=O)N(C)C[C@@H]2Oc3ccc(NS(=O)(=O)c4cn(C)cn4)cc3CC(=O)N([C@@H](C)CO)C[C@H]2C)cc1	0.9
C[C@@H]1CN([C@@H](C)CO)C(=O)c2cc(NC(=O)c3ccncc3)ccc2O[C@@H](C)CCCCO[C@@H]1CN(C)Cc1ccccc1	-0.1
C[C@@H]1CN([C@@H](C)CO)C(=O)c2cc(NC(=O)Cc3cn(C)c4ccccc34)ccc2O[C@H]1CN(C)C(=O)NC1CCCCC1	1.1

Some of the entries so far, as comma-separated lines:
SMILES,A1 apoptosis 2
O=C(NO)c1cccc(C(=O)N/N=C/c2ccncc2Br)c1,-4.9
C[C@@H]1CN([C@@H](C)CO)C(=O)c2cc(NC(=O)c3ccncc3)ccc2O[C@@H](C)CCCCO[C@@H]1CN(C)Cc1ccccc1,-0.1

Next section:
SMILES	A1 apoptosis 2
C[C@@H]1CCCCO[C@H](CN(C)Cc2ccc(Cl)c(Cl)c2)[C@@H](C)CN([C@@H](C)CO)C(=O)c2cc(NS(=O)(=O)c3ccccc3)ccc2O1	-1.0
C[C@@H]1CN([C@@H](C)CO)C(=O)c2cccc(NC(=O)Nc3ccc4c(c3)OCO4)c2O[C@H]1CN(C)C(=O)NC1CCCCC1	0.6
CNC[C@H]1Oc2ccc(NC(=O)C3CC3)cc2C(=O)N([C@H](C)CO)C[C@@H]1C	0.6
C[C@@H]1CN([C@@H](C)CO)C(=O)c2cc(NC(=O)Cc3ccccc3)ccc2O[C@H]1CN(C)CC1CC1	-1.1
C[C@H]1CN([C@@H](C)CO)C(=O)c2cccc(NC(=O)Nc3cccc4ccccc34)c2O[C@H]1CN(C)C(=O)Nc1cccc2ccccc12	-1.0
CC(C)COC(=O)N(C)C[C@@H]1OCc2cn(nn2)CCCC(=O)N([C@@H](C)CO)C[C@H]1C	0.2
C[C@@H]1CN([C@H](C)CO)C(=O)c2cc(NC(=O)CCC(F)(F)F)ccc2O[C@H]1CN(C)C(=O)Nc1ccccc1	-0.7
C[C@@H]1CCCCO[C@H](CN(C)C(=O)Nc2cccc3ccccc23)[C@@H](C)CN([C@H](C)CO)C(=O)c2cc(N(C)C)ccc2O1	0.4
C[C@H]1CN([C@@H](C)CO)C(=O)c2cccc(NS(C)(=O)=O)c2O[C@@H]1CN(C)Cc1ccc(Cl)c(Cl)c1	0.7
O=C(CCCCCCC(=O)Nc1ccccc1O)N/N=C/c1ccc(O)cc1	-0.4
C[C@@H]1CN([C@@H](C)CO)C(=O)c2cc(NC(=O)Nc3cccc4ccccc34)ccc2O[C@@H](C)CCCCO[C@@H]1CN(C)S(=O)(=O)c1cccs1	0.8
COc1ccc(S(=O)(=O)N(C)C[C@H]2OCCCC[C@H](C)Oc3ccc(NC(=O)Nc4ccc(C(F)(F)F)cc4)cc3C(=O)N([C@@H](C)CO)C[C@@H]2C)cc1	0.1
C[C@H](CO)N1C[C@H](C)[C@H](CN(C)Cc2ccc(C(=O)O)cc2)OCCCC[C@H](C)Oc2ccc(NS(=O)(=O)c3ccc(Cl)cc3)cc2C1=O	-0.6
COc1ccc(NC(=O)N(C)C[C@@H]2Oc3ccc(NC(=O)Nc4ccccc4)cc3C(=O)N([C@@H](C)CO)C[C@H]2C)cc1	0.0
C[C@H](CO)N1C[C@H](C)[C@@H](CN(C)S(=O)(=O)c2ccccc2)OCCCC[C@H](C)Oc2ccc(NC(=O)Nc3ccccc3)cc2C1=O	-0.7
C[C@@H]1CN([C@@H](C)CO)C(=O)c2cc(NC(=O)C3CCCCC3)ccc2O[C@@H](C)CCCCO[C@H]1CN(C)C	0.8
Cc1ccc(S(=O)(=O)Nc2ccc3c(c2)C(=O)N([C@@H](C)CO)C[C@@H](C)[C@H](CN(C)S(C)(=O)=O)OCCCC[C@@H](C)O3)cc1	-0.4
Cc1noc(C)c1NC(=O)Nc1cccc2c1O[C@H](CN(C)C(=O)Nc1c(C)noc1C)[C@H](C)CN([C@H](C)CO)C2=O	-0.1
C[C@@H]1CN([C@H](C)CO)C(=O)c2cccc(NC(=O)CCCCCC(=O)Nc3ccccc3N)c2O[C@H]1CN(C)C(=O)Nc1ccccc1	-0.4
C[C@@H]1CCCCO[C@@H](CN(C)Cc2ccc(Cl)c(Cl)c2)[C@@H](C)CN([C@H](C)CO)C(=O)c2cc(N(C)C)ccc2O1	0.3
C[C@@H]1CCCCO[C@@H](CN(C)C(=O)CCC(F)(F)F)[C@H](C)CN([C@H](C)CO)C(=O)c2cc(NS(=O)(=O)c3ccccc3)ccc2O1	0.1
Cc1noc(C)c1NC(=O)Nc1ccc2c(c1)C(=O)N([C@H](C)CO)C[C@H](C)[C@@H](CN(C)Cc1ccc(Cl)c(Cl)c1)O2	-0.5
C[C@H]1CN([C@@H](C)CO)C(=O)Cc2cc(NS(=O)(=O)c3cccs3)ccc2O[C@H]1CN(C)CC1CC1	-0.8
Cc1noc(C)c1S(=O)(=O)Nc1ccc2c(c1)C(=O)N([C@@H](C)CO)C[C@@H](C)[C@H](CN(C)C(=O)CCC(F)(F)F)OCCCC[C@H](C)O2	0.3
C[C@@H]1CN([C@@H](C)CO)C(=O)CCCn2cc(nn2)CO[C@H]1CN(C)Cc1ccc2c(c1)OCO2	0.7
C[C@@H]1CN([C@H](C)CO)C(=O)Cc2cc(N(C)C)ccc2O[C@@H]1CN(C)S(=O)(=O)c1ccccc1	-0.3
Cc1ccc(S(=O)(=O)N(C)C[C@H]2OCCCC[C@H](C)Oc3ccc(NC(=O)Nc4ccc(F)cc4)cc3C(=O)N([C@H](C)CO)C[C@@H]2C)cc1	1.0
C[C@@H]1CCCCO[C@@H](CN(C)S(=O)(=O)c2ccc(Cl)cc2)[C@H](C)CN([C@@H](C)CO)C(=O)c2cc(NC(=O)Nc3ccc(C(F)(F)F)cc3)ccc2O1	-0.5
COc1ccc(S(=O)(=O)Nc2cccc3c2O[C@@H](CN(C)C(=O)Nc2c(C)noc2C)[C@H](C)CN([C@@H](C)CO)C3=O)cc1	1.4
Cc1ccc(S(=O)(=O)N(C)C[C@@H]2Oc3ccc(NC(=O)Cn4cnnn4)cc3CC(=O)N([C@H](C)CO)C[C@H]2C)cc1	-0.7
C[C@@H]1CN([C@H](C)CO)C(=O)c2cccc(NS(=O)(=O)c3ccc(F)cc3)c2O[C@@H]1CN(C)Cc1ccc(Cl)c(Cl)c1	-0.4
C[C@@H]1CCCCO[C@H](CN(C)Cc2ccccc2)[C@@H](C)CN([C@@H](C)CO)C(=O)c2cc(NC(=O)CCC(F)(F)F)ccc2O1	-0.7
C[C@@H]1CCCCO[C@@H](CN(C)C(=O)Nc2ccccc2)[C@H](C)CN([C@H](C)CO)C(=O)c2cc(NC(=O)C3CCCCC3)ccc2O1	1.1
C[C@H]1CCCCO[C@@H](CN(C)C(=O)Nc2ccccc2)[C@@H](C)CN([C@@H](C)CO)C(=O)c2cc(NC(=O)Nc3ccc(C(F)(F)F)cc3)ccc2O1	-0.1
Cc1ccc(S(=O)(=O)N(C)C[C@@H]2Oc3ccc(NC(=O)Nc4ccccc4)cc3C(=O)N([C@H](C)CO)C[C@@H]2C)cc1	-0.5
CC(C)NC(=O)Nc1ccc2c(c1)C(=O)N([C@H](C)CO)C[C@H](C)[C@@H](CN(C)C(=O)NC1CCCCC1)OCCCC[C@@H](C)O2	0.6
C[C@H](CO)N1C[C@H](C)[C@H](CN(C)S(=O)(=O)c2cn(C)cn2)Oc2ccc(NC(=O)c3ccncc3)cc2C1=O	0.1
COc1ccc(S(=O)(=O)Nc2ccc3c(c2)C(=O)N([C@H](C)CO)C[C@H](C)[C@H](CN(C)S(=O)(=O)c2c(C)noc2C)O3)cc1	-1.1
Cc1noc(C)c1S(=O)(=O)Nc1ccc2c(c1)C(=O)N([C@@H](C)CO)C[C@@H](C)[C@H](CN(C)C(=O)CCC(F)(F)F)OCCCC[C@@H](C)O2	-1.5
CC(=O)n1cc([C@H]2C=C(C(=O)N3CCCCCCC3)O[C@@H](OCc3ccc(CO)cc3)C2)c2ccccc21	-0.5

An excerpt; count on the stated rates, not on these rows.
